# Rce1 inhib: yeast Rce1p protease inhibitors, primary screen, biochemical, fluorescence, cell-free homogeneous; CAAX prenyl protease 2 (Saccharomyces cerevisiae (strain ATCC 204508 / S288c)), Q03530; yeast membranes, quenched prenylated peptide cleavage fluorescence; AID 2563, 2010; 290,000 compounds, 0.27% hits; calls only;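 active means fall in fluorescence gain of 50% or more versus controls, with final raw signal at or below 3038400; inconclusive means same 50% fall but final raw signal above 3038400; inactive means fall in fluorescence gain under 50%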;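 further: plate controls were neutral control wells for no effect and wells lacking membranes for full effect; tested at 10 µM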
# PABP polyA inh: PABP poly(A) RNA binding inhibitors, primary screen, biochemical, fluorescence polarization, uHTS; inhibition, % at 35 µM; 290,000 compounds, 1% hits;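 active means 50% or more with normal probe brightness, or confirmed in later tests; inconclusive means above 50% with abnormal brightness, or retests that disagree; inactive means below 50% or failed in later tests; about a fifth of its hits are not listed in these tables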;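 further: calls also rest on retests at 20 µM and on dose response follow-up; controls were probe without protein and protein plus probe with vehicle; some compounds called inactive have numbers as strong as hits; many hits fall short of the cut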
# Target sequence (P11940 whole entry, looked up): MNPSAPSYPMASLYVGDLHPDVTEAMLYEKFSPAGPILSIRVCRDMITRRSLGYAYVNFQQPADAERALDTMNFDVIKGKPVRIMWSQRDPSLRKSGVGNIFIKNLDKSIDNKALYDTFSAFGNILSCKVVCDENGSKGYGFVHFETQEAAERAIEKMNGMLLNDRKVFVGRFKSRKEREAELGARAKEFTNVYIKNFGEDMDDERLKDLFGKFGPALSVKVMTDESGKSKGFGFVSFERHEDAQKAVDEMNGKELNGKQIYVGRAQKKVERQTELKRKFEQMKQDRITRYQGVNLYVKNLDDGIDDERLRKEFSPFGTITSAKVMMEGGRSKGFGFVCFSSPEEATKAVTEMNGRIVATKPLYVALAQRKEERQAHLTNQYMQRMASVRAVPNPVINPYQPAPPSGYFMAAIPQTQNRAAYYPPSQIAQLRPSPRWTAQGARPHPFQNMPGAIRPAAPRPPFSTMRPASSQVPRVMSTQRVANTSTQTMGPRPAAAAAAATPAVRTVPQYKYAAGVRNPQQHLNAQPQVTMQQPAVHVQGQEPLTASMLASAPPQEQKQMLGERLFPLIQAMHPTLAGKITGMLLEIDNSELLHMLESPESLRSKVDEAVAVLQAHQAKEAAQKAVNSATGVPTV
# eIF4H FP inh: human eIF4H binding inhibitors, primary screen, translation initiation inhibitor project, biochemical, uHTS, fluorescence polarization | 290,000 compounds, 0.94% hits | eIF4H fluorescence polarization binding assay | AID 2012, 2009 | Eukaryotic translation initiation factor 4H (Homo sapiens), Q15056 | inhibition, % at 35 µM;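 active means 50% or more with normal probe brightness, or confirmed in later tests; inconclusive means above 50% with abnormal brightness, or retests that disagree; inactive means below 50% or failed in later tests; about a fifth of its hits are not listed in these tables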;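 further: calls also rest on retests at 20 µM and on dose response follow-up; 0% = protein and probe with vehicle and 100% = probe without protein; strong numbers were not always called active; many hits fall short of the cut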
# Yeast UUG start: modulators of yeast start codon fidelity, primary screen, whole organism, S. cerevisiae, single point, plate reader | S. cerevisiae UUG-firefly luciferase reporter, luminescence/redox ratio | activity score, % at 18.7 µM | 350,000 compounds, 0.13% hits | AID 602363, 2012;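 active means replicate mean at a twofold rise or more, about +100% in these data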;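 further: firefly luciferase made from a UUG start codon reports start codon fidelity; reporter light over untreated wells divided by growth signal over untreated wells; some hits fall short of that in this replicate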
# MT1-MMP act inh: blockers of MT1-MMP proenzyme processing, primary screen, HT1080 RFP-PRO-GFP cells, GFP/RFP fluorescence. GFP/RFP ratio change, % at 20 µM. 360,000 compounds, 0.061% hits. Matrix metalloproteinase-14 (Homo sapiens), P50281. GFP/RFP ratio fluorescence, overnight; percent of plate control window, DMSO zero;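 active means GFP/RFP ratio change of at least 30% with cell ATP level not reduced by more than half and red fluorescence within 50% of control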; further: strong numbers were not always called active
#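 Test system: HT1080 cells expressing an RFP-PRO-GFP fluorescent reporter construct / Compound dosing: single-point 20 µM compound, 1% DMSO / Schedule: cells overnight before dosing, compound overnight, 37 °C, 5% CO2 / Evaluation: GFP/RFP fluorescence ratio / Control set: DMSO and RFP-L50D-GFP cell wells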
# CSC inhib: cancer stem cell viability inhibitors, primary screen, luminescence; inhibition, % at 7.5 µM; cancer stem cell-like cells viability; 300,000 compounds, 1.1% hits; AID 2717, 2010;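 active means mean at 75% or more and at least half the replicates too; inconclusive means mean and replicates disagree; tested in HMLE shEcad cells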;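 further: 0% = median of negative and 100% = median of positive control wells; the first replicate is given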
# Env fusion inh: inhibitors of HIV-1 Env-driven cell-cell fusion, primary screen, HeLa-JRFL effector, CEM21 target cells, luciferase; inhibition, % at 12.3 µM; 360,000 compounds, 1.1% hits; AID 651610, 2012;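 active means mean replicate inhibition score of at least 50 and every replicate individually at or above 50; inconclusive means only one of the two criteria met; inactive means mean below 50 and not all replicates reaching 50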;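 further: 0% = plate neutral controls and 100% = maraviroc near 300 nM; one replicate is shown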
# eIF4H FP inh retest: also measured in eIF4H FP inh; calls as there; inhibition, %; compound at 20 µM; confirmation average;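 mean of two retest wells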
# PABP polyA inh retest: also measured in PABP polyA inh; calls as there; inhibition, %; compound at 20 µM; confirmation repeats;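 mean of two retest wells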
# MT1-MMP act inh RFP: recorded beside MT1-MMP act inh, whose call it bears; RFP signal change, %; measured here: RFP expression control read;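 0 = vehicle wells; hits needed this value within 50% of zero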
# Active calls of the source: *; i = inactive; ? = inconclusive; · = no result given; & = joins results of further samples. Not all compounds are listed, so the mix of outcomes need not match the whole.
SMILES,Rce1 inhib,PABP polyA inh,eIF4H FP inh,Yeast UUG start,MT1-MMP act inh,MT1-MMP act inh RFP,CSC inhib,Env fusion inh,others
O=C(c1cc2ncc(Br)cn2n1)N1CCN(C(=O)c2ccco2)CC1,i,44.1,55.5,2.1,3.0,3.9,-15.9,·,eIF4H FP inh retest=-2.6;PABP polyA inh retest=0.0
OCCC1CN(Cc2ccccc2-c2ccco2)CCN1Cc1ccsc1 (configuration not stated),i,3.9,3.7,-13.9,-1.2,2.1,-8.9,17.2,
Cc1cc(SCC(=O)c2cc(C)n(C)c2C)nc2ccccc12,i,-3.7,3.8,·,-0.7,2.8,32.6,-1.4,
Cc1cccc(CCNS(=O)(=O)c2cc3c(cc2C)NC(=O)CO3)c1,i,-6.1,8.1,-2.9,1.0,-2.4,-0.8,3.5,
C/C(=N/NC(=O)CNC(=O)C1COc2ccccc2O1)c1cccc(O)c1 (configuration not stated),i,5.8,-0.6,·,0.0,5.4,-7.2,0.3,
Cc1ccc(CN2CCN(/N=C/c3ccco3)CC2)c(C)c1,i,14.4,52.3,-12.6,-0.5,2.2,14.6,-13.7,eIF4H FP inh retest=-12.9;PABP polyA inh retest=0.2
COc1cc2sc(C)nc2c2ccccc12,i,4.4,-0.3,-17.3,-0.7,0.1,-7.4,-7.1,
COC(=O)C1=C(C)N=C2SC(C)C(=O)N2C1c1cccs1 (configuration not stated),i,-0.8,-0.6,-4.2,-9.1,-6.5,-12.3,·,
O=C(NCCc1c[nH]c2ccccc12)c1ccc(-n2cnnn2)cc1,i,1.3,2.8,2.8,3.7,4.9,·,·,
Cc1c(Br)c([N+](=O)[O-])nn1CCCC(=O)Nc1sc2c(c1C#N)CCC2,i,-11.7,27.2,·,-2.6,2.5,-9.3,·,
COC(=O)Nc1sc2nc(C)cc(C)c2c1-n1cccc1,i,-2.8,-1.3,-24.1,7.5,-0.6,·,-56.6,
CCC(=O)N1c2ccccc2NC2=C(C(=O)CCC2)C1c1cccnc1 (configuration not stated),i,2.9,2.2,-6.1,-2.9,0.6,-12.1,-56.8,
COCCNC(=O)CCc1c(C)nc2nc(-c3cc(OC)cc(OC)c3)nn2c1C,i,9.8,13.4,·,7.1,6.0,-0.4,22.2,
COc1ccccc1NS(=O)(=O)c1ccc(Cl)c(NC(=S)NC(=O)C2CCCC2)c1,i,12.8,-0.8,·,1.5,-7.2,31.4,·,
O=C(CN(c1cccc([N+](=O)[O-])c1)S(=O)(=O)c1ccccc1)N1CCCCC1,i,-0.6,4.4,-5.7,0.2,2.2,-9.6,-3.1,
O=C(Nc1c(F)cc(F)cc1Br)C1CCCO1 (configuration not stated),i,0.9,-3.3,·,5.0,2.8,-9.6,·,
O=S(=O)(NCCc1ccccc1)c1ccccc1,i,-13.1,6.3,-3.2,-3.9,2.8,13.0,·,
c1c(C2CCCCC2)n[nH]c1CN1CCCCC1,i,-5.6,5.9,-11.7,1.2,2.5,·,-9.6,
CC(C)(Cc1ccc(O)cc1)NC(=O)CC(=O)N/N=C/c1ccc(Cl)cc1,·,-8.4,-8.9,-9.5,-0.4,-5.2,33.1,-62.5,
COc1ccc(CCNC(=O)COc2ccc(S(=O)(=O)N3CCOCC3)cc2C)cc1,i,-7.2,-1.0,-25.8,-3.1,-7.2,-3.9,-5.8,
Cc1cc(C(=O)CS(=O)(=O)c2ccccc2)cc(C)c1O,i,-1.7,-2.8,-14.3,-0.1,-7.3,1.1,-20.2,
CC(=O)c1cccc(NC(=O)COC(=O)COc2ccccc2C)c1,i,5.2,-0.6,·,2.8,4.5,-5.6,-33.1,
Cn1c(N2CCCCC2)cc(=O)n(C)c1=O,i,-4.1,-2.7,-17.3,-5.2,-3.2,-36.9,9.6,
Nc1nnc(-c2cn(-c3ccccc3)nc2-c2ccccc2)o1,i,-2.0,-19.3,-26.1,-6.2,-2.7,·,10.2,
CSc1nc(NC(C)(C)C)nc(N2CCOCC2)n1,i,-0.7,12.7,-9.9,-1.8,1.6,-0.2,·,
Oc1ccc2ccccc2c1C1Nc2cccc3cccc(c23)N1,i,50.5*,76.6*,·,2.5,7.1,26.9,·,
COCCCNc1ccn2nc(-c3cccc(Cl)c3)cc2n1,·,·,·,-34.0,12.5,-7.0,·,-337.2,
COc1ccc(-c2[nH]nc3c2C(c2ccncc2)C(C#N)=C(N)O3)cc1 (configuration not stated),i,15.2,-3.6,-30.0,2.3,1.4,-13.7,9.4,
Cc1nccn1S(=O)(=O)c1ccc(Br)cc1Br,·,-3.6,-5.7,-13.1,4.8,3.6,-1.5,5.1,
CC1=C(C(=O)OCC2CCCO2)C(c2ccc(C)o2)C2=C(CC(c3ccc(F)cc3)CC2=O)N1 (configuration not stated),·,-1.0,-1.7,-2.3,-3.2,-3.6,0.5,·,

# As a working copy, part of the list above.
SMILES,Rce1 inhib,PABP polyA inh,eIF4H FP inh,Yeast UUG start,MT1-MMP act inh,MT1-MMP act inh RFP,CSC inhib,Env fusion inh,others
Cc1nccn1S(=O)(=O)c1ccc(Br)cc1Br,·,-3.6,-5.7,-13.1,4.8,3.6,-1.5,5.1,
CC1=C(C(=O)OCC2CCCO2)C(c2ccc(C)o2)C2=C(CC(c3ccc(F)cc3)CC2=O)N1 (configuration not stated),·,-1.0,-1.7,-2.3,-3.2,-3.6,0.5,·,

# Carrying on.
SMILES,Rce1 inhib,PABP polyA inh,eIF4H FP inh,Yeast UUG start,MT1-MMP act inh,MT1-MMP act inh RFP,CSC inhib,Env fusion inh,others
CCN(CC)c1ccc(-c2sc(Nc3ccccc3)n[n+]2-c2ccc(F)cc2)cc1,i,-5.9,32.6,-24.5,-1.0,-3.5,2.3,7.7,
O=C(COc1ccc2ccccc2c1)NCCn1ccc2ccccc21,i,3.3,4.6,11.6,-8.1,0.8,-0.9,-19.8,
COc1ccc(S(=O)(=O)N2CCN(C(=O)c3cc(C4CC4)nn3-c3ccccc3)CC2)cc1OC,·,·,·,-10.4,-0.5,-3.5,-4.9,5.4,
CC(C)CC(NC(=O)c1cccs1)c1nnc(SCc2ccc(Cl)c(Cl)c2)n1C (configuration not stated),i,-4.8,-17.3,-16.8,-8.4,-15.8,-49.4,-1.2,
O=C(O)C[C@H]1c2cc(F)ccc2S(=O)(=O)N1Cc1ccccc1,i,·,·,-15.4,-0.1,7.2,-17.2,-20.3,
c1ccc(C2=NN(c3ccccc3)CC2)cc1,i,-1.0,4.8,-15.1,6.6,-0.4,-10.2,-133.7,
COC(=O)c1c(C)nn(-c2ccccc2)c1N,i,-2.9,-11.3,-18.2,2.1,-0.9,6.9,-12.7,
CCOC(=O)c1c(C)c(/C=N/Nc2ccccc2)n(C)c1C,·,-4.7,-8.4,·,-6.3,3.3,·,-40.9,
CC(=O)Nc1ccc(NC(=O)C(C)OC(=O)CSc2ccc(Br)cc2C)cc1 (configuration not stated),i,2.8,-4.7,-7.5,1.1,4.8,-15.6,-8.7,
Cc1ccccc1N1C(=O)c2cc(S(N)(=O)=O)c(Cl)cc2NC1C (configuration not stated),·,·,·,-10.5,1.8,0.6,2.1,0.0,
COc1cc2[nH]c(=O)n(CCC(=O)NC3CCCC3)c(=O)c2cc1OC,i,-7.2,-13.6,-29.9,0.6,2.8,-12.9,·,
COC(=O)c1ccc(CN2CCCC(CCC(=O)NCc3ccc(C)o3)C2)cc1 (configuration not stated),i,16.1,25.5,-15.3,5.7,6.5,-10.3,-7.2,
COc1cccc(/C=C/C(=O)c2ccc3c(c2)OCCO3)c1OC,i,1.6,-3.4,-11.5,9.6,-0.5,11.9,-78.8,
CS(=O)(=O)c1ccc2nc(NC(=O)CCC(=O)c3cccs3)sc2c1,i,13.4,7.9,-1.0,-9.5,-5.5,-10.3,·,
COc1ccc(NC(=O)CC2CC3CCC2C3)cn1 (configuration not stated),i,5.9,4.2,-11.8,-0.6,1.6,-11.4,7.0,
Cc1c(Cc2ccccc2)c(=O)oc2c(CN(C)C)c(O)c(Cl)cc12,?,9.9,13.5,-7.9,3.8,3.3,5.8,-48.9,
CCCn1c(CCNc2nc(-c3ccc(Cl)c([N+](=O)[O-])c3)cs2)nc2cc(Cl)c(Cl)cc21,i,-3.4,0.7,-5.8,5.8,-2.2,7.6,10.3,
C[C@H](CO)N1C[C@H](C)[C@@H](CN(C)C(=O)NC2CCCCC2)Oc2ccc(NC(=O)c3ccncc3)cc2C1=O,·,·,·,-17.7&-8.4,1.9,7.7,·,-4.9,
CC(=O)NC1(c2ccccc2)CCN(Cc2nnnn2C(C)(C)C)CC1,i,1.7,-3.1,-4.8,-0.1,-5.6,-14.3,-107.1,
COc1ccc(-c2nnnn2C)cc1S(=O)(=O)NCc1ccccc1,i,11.2,0.7,-9.4,3.5,6.3,2.0,·,
Cc1ccc(/C=C2\SC(=S)N(C(Cc3ccccc3)C(=O)O)C2=O)cc1 (configuration not stated),i,13.8,6.2,-3.3,1.3,4.8,20.3,-5.9,
Nc1nnc(SCC(=O)OCC(=O)c2ccccc2Br)s1,i,?,-7.2,·,-23.2,9.9,0.8,-0.8,
Cc1ccc(C(=O)C(OC(=O)CCC(=O)Nc2cccc(C)c2)c2ccccc2)cc1 (configuration not stated),i,-4.1,-4.0,-23.6,2.2,5.9,3.2,-66.9,
COc1ccc(CNc2oc(-c3ccccc3)nc2C#N)cc1,i,-1.5,1.2,-13.5,12.1,-2.8,·,-18.4,
CC(/C=N/NC(=O)c1cccc([N+](=O)[O-])c1)=C\c1ccccc1,·,-5.4,-2.0,-14.7,-1.8,-1.9,·,-17.3,
COc1ccc(-n2c(SCC(=O)Nc3sc4c(c3C#N)CCCC4)nnc2-c2ccccc2OC)cc1,i,-1.2,-9.1,-17.7,2.3,-7.5,19.5,·,
CN1C[C@@H]2[C@@H]3C(=O)N(C)C(=O)[C@@H]3[C@](C)(C1=O)N2C(=O)c1ccc(C(F)(F)F)cc1,·,·,·,0.7,3.1,-1.5,·,-13.6,
CCOc1ccc(Cl)cc1-c1cc(C(=O)NCc2cccc(C(F)(F)F)c2)[nH]n1,·,·,·,0.6,2.0,-8.8,·,-2.0,
COc1cc(NC(=O)c2cccc(COCC(F)(F)C(F)F)c2)cc(OC)c1OC,i,-13.5,-3.0,·,7.3,1.1,-2.1,2.7,
Cc1ccc(SC(C)C(=O)Nc2cccnc2)cc1 (configuration not stated),i,12.8,1.9,-12.4,2.1,8.4,-8.5,-12.0,
CCS(=O)(=O)N1CCN(S(=O)(=O)c2ccc3c(c2)OCCO3)CC1,i,-4.6,-9.6,-0.5,6.9,1.3,-4.5,-18.8,

# Reprinted at random: 2 compounds from above
SMILES,Rce1 inhib,PABP polyA inh,eIF4H FP inh,Yeast UUG start,MT1-MMP act inh,MT1-MMP act inh RFP,CSC inhib,Env fusion inh,others
COc1ccc(CNc2oc(-c3ccccc3)nc2C#N)cc1,i,-1.5,1.2,-13.5,12.1,-2.8,·,-18.4,
CC(/C=N/NC(=O)c1cccc([N+](=O)[O-])c1)=C\c1ccccc1,·,-5.4,-2.0,-14.7,-1.8,-1.9,·,-17.3,
